Screens (PubChem)
UCH37 DUB inh = blocks the human deubiquitinase UCH37; purified proteasome/UCH37, Ub-AMC cleavage fluorescence; 0.33% of 330,000 active; inhibition, % (test concentration not listed); Q9Y5K5;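 active = mean of two replicates above 20%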;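 also: 0% = compound-free wells with enzyme and 100% = wells lacking proteasome; stock transfer was 100 nL into about 20 µL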
Target sequence (Q9Y5K5 whole entry, looked up): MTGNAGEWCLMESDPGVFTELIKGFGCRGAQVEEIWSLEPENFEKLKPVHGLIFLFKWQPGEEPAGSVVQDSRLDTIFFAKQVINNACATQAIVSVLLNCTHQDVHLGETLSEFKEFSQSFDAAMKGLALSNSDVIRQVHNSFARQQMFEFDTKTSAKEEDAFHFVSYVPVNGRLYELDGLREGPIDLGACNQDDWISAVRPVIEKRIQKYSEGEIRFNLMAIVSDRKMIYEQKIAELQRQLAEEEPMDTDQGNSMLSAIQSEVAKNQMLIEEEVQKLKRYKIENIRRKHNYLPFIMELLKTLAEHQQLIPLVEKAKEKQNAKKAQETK
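System: Proteasome-associated human UCH37 deubiquitinase; Input: 0.15 nM proteasome in added enzyme buffer; Also added: Ub-AMC substrate from 1 µM stock; Incubation: 30 min compound-proteasome preincubation then 25 min substrate reaction, room temperature; Detection: fluorescence, ex 355 nm, em 460 nm; Read-out: % inhibition of Ub-AMC cleavage fluorescence; Benchmarks: no-proteasome and no-compound wells.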
Beta2AR agonist = human beta-2 adrenergic receptor agonism by FAP. 0.43% of 340,000 active. response, % (concentration not given with the values). P07550. AID 504454. Am2.2-beta2AR cells, FAP receptor internalization, flow cytometry; reference of the scale not given here;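 active = response above a set limit, near 3 SD of response in nonfluorescent compounds, cut at about 42% in these data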;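 also: stock transfer was 100 nL into about 11 µL; a reference agonist was the positive control; negative values mostly stem from fluorescent compounds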
Target sequence (P07550 whole entry, looked up): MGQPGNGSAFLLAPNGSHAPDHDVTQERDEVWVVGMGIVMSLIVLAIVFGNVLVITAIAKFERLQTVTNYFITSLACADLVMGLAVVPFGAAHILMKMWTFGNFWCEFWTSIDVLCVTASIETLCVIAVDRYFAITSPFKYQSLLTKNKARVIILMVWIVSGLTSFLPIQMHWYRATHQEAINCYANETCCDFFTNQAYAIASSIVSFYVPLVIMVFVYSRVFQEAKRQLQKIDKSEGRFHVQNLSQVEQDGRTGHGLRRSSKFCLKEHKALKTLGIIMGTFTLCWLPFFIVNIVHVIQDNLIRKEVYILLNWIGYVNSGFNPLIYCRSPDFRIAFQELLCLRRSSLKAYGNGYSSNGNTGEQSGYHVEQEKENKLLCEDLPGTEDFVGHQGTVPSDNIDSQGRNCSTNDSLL
T cruzi repl = T. cruzi replication inhibition; inhibition, % (test concentration not listed); T. cruzi beta-gal in NIH3T3, luminescence, 90 h; 1.4% of 300,000 active; AID 1885;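 active = mean inhibition across valid replicates above about 55%, limit read from the data; inconclusive = mean below that limit but half or more replicates reach it; inactive = mean below it, under half of replicates reach it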;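 also: signal also drops with host cell toxicity which is not excluded here; 0% = plate median of DMSO wells and 100% = zero luminescence signal; higher percent means less beta-gal luminescence so fewer parasites; stock transfer was 50 nL into about 50 µL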
LANA-H2B inh = blocks KSHV LANA binding to histone H2A/H2B | Q9QR71 | cell-free LANA-H2A/H2B peptide, fluorescence polarization | inhibition, % (no concentration beside the values) | 0.6% of 320,000 active; in the data active = inhibition mostly above about 10%, no sharp cut-off; inactive = mostly below about 6.7%;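 also: stock transfer was 7.5 nL into about 10 µL; 0% = median of vehicle wells and 100% = median of positive control wells; one replicate is shown; the record names a cut of 25% in any replicate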
A1 inh = inhibitors of the anti-apoptotic protein A1, read as caspase activation | caspase activation, % (test concentration not listed) | 0.066% of 330,000 active | MEF A1-2A-BIM cells, Caspase-Glo 3/7 luminescence, 3 h; percent of clofoctol response, vehicle zero;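 active = over half of replicate activation scores above 10%, or exactly half above 10 with the replicate mean above 10; inconclusive = replicate mean below 10 yet half the replicates above 10; inactive = over half of replicates below 10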;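 also: wells of about 30 µL received 50 nL stock; many hits fall short of the cut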
Beta cell apopt = blocks beta cell apoptosis; INS-1E cytokine-induced death, ATP luminescence, 48 h; percent of positive-control rescue, neutral wells zero; protection from apoptosis, % (concentration not given with the values); 0.8% of 300,000 active; AID 435005;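 active = all replicates at 75% or more, or half of them and the mean; inconclusive = half reach 75% but not the mean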;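 also: 0% = cytokine-treated negative control wells and 100% = positive control rescue; higher means more ATP so stronger rescue from cytokine killing; wells of about 40 µL received 100 nL stock; the first replicate is given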
Calb FLC = affects C. albicans growth with fluconazole | C. albicans CaCi-2 (fluconazole-resistant clinical isolate) + fluconazole, Alamar Blue growth, 48 h | growth inhibition, % (test concentration not listed) | 0.57% of 300,000 active | AID 1979;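 active = most replicates above 75%; inconclusive = exactly half above 75%; inactive = most below 75%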;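 also: all wells also contain fluconazole at 8 µg/ml as a sub-toxic cotreatment; 0% = median of DMSO wells and 100% = median of geldanamycin control wells; wells of about 8 µL received 7.5 nL stock; the first replicate is given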
RanGTP-Impb inh = disruptors of Ran-importin-beta complex formation – biochemical, FRET, CFP-Ran, YFP-importin-beta, homogeneous, primary screen | cell-free CFP-Ran/YFP-importin-beta FRET ratio | inhibition, % (test concentration not listed) | 1.1% of 300,000 active;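 active = most replicates above 15%; inconclusive = exactly half above 15%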;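 also: 0% = DMSO wells and 100% = Ran loaded with GDP instead of GTP; wells of about 40 µL received 100 nL stock; the first replicate is given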
Active calls of the source: *; ? = inconclusive; . = no result given.

SMILES | UCH37 DUB inh | Beta2AR agonist | T cruzi repl | LANA-H2B inh | A1 inh | Beta cell apopt | Calb FLC | RanGTP-Impb inh
O=S(=O)(c1ccc(-n2cnnn2)cc1)N1CCN(c2ccccc2F)CC1 | -0.5 | -4.4 | -4.2 | -2.0 | 0.5 | 4.4 | 0.0 | 7.8
Cc1ccc(NC(=S)N2CCC(NC(=O)c3ccccc3)CC2)cc1 | 1.5 | 4.0 | -0.9 | 2.0 | 0.7 | 0.2 | -6.0 | 2.8
Fc1ccc(-c2cnn3c(-c4ccncc4)ccnc23)cc1 | 2.3 | -7.0 | -14.7 | -0.5 | -3.5 | -6.8 | -0.3 | -0.2
CCOc1ccccc1N1CCN(C(=S)NC(=O)C23CC4CC(CC(C4)C2)C3)CC1 | 2.0 | 7.5 | 14.1 | -1.2 | -0.5 | 3.6 | 7.1 | ?
Cc1nc(NC(=O)c2cc3c(C)nn(-c4ccccc4)c3s2)sc1C(=O)Nc1ccccc1 | -140.2 | -3.0 | . | 1.2 | 0.0 | 8.8 | -2.4 | -1.7
COc1ccc2nc(NC(=O)CSc3nnc(C)s3)sc2c1 | -1.1 | 1.8 | 1.1 | -2.7 | -3.4 | -6.5 | -6.0 | 0.3
COc1ccccc1N1CCN(C(=S)Nc2ccc(F)cc2)CC1 | 1.1 | -3.2 | 11.8 | 7.0 | -0.2 | . | 9.3 | 6.2
COC(=O)c1ccc2[nH]c(C)c(CN3CCCC3)c(=O)c2c1 | -5.4 | 0.5 | 10.9 | . | . | . | . | -3.2
O=C(C1CC=CCC1)N1CCN(C(=O)C2CC=CCC2)CC1 (configuration not stated) | 5.8 | -5.0 | -16.0 | -4.7 | 1.1 | -3.0 | 11.8 | -2.5
Cc1ccc(C)c(N2CCN(C(=O)CN3C(=O)c4ccccc4C3=O)CC2)c1 | 1.0 | -2.0 | 2.3 | -6.7 | 0.2 | -0.4 | -4.6 | 0.1
CC1(C)Cc2nc3sc4c(SCC(=O)NC(c5ccccc5)c5ccccc5)ncnc4c3cc2CO1 | -1.5 | 9.9 | 4.3 | -7.0 | 0.3 | 3.5 | -6.3 | 2.0
O=C(CN1C(=O)COc2ccccc21)N(Cc1ccc2c(c1)OCO2)CC1CCCO1 (configuration not stated) | 1.1 | -4.1 | 14.5 | 0.6 | 0.3 | 3.2 | 0.1 | 6.1
CC(=O)c1cccc(S(=O)(=O)Nc2cccc(S(=O)(=O)NC3=NCCC3)c2)c1 | -0.4 | 9.6 | -6.5 | 0.3 | -0.2 | -5.0 | -5.3 | 8.9
Cc1ccc(C)c(NC(=O)CSc2nnc([C@@H](N)Cc3ccccc3)o2)c1 | -0.2 | -7.2 | 4.8 | 2.7 | . | -3.9 | -6.2 | 0.5
O=C(Nc1ccc(C2CC2(Cl)Cl)cc1)c1cccc([N+](=O)[O-])c1 (configuration not stated) | 4.0 | 4.2 | -9.0 | -0.8 | -5.4 | . | 24.0 | 1.8
CCCCOc1cc(NCc2ccccc2)c2ncn(C(C)C)c2c1 | 1.9 | 1.6 | . | 4.1 | -1.2 | 79.5* | . | .
O=S(=O)(c1cccc2ccccc12)N1CCSC1 | 4.0 | 2.8 | . | 5.8 | -0.4 | -10.0 | . | .
Cn1c(=O)c2c(ncn2CC(=O)Nc2nc3ccc(F)cc3s2)n(C)c1=O | 1.6 | -8.6 | -6.2 | -1.5 | 0.3 | -1.5 | 4.6 | -0.3
S=c1[nH]nc(-c2cc(-c3ccccc3)n[nH]2)n1/N=C/c1c2ccccc2cc2ccccc12 | . | 12.6 | -3.3 | 3.2 | -1.5 | 10.1 | 29.2 | -47.4
COC(=O)Oc1nsnc1N1CCOCC1 | -0.1 | -2.8 | 1.6 | 3.8 | 0.1 | -18.2 | -17.4 | 2.2
CCc1cccc(OCCCCNCCOC)c1 | -2.3 | 8.5 | 11.3 | 3.6 | 0.9 | -4.1 | -2.1 | 8.6
NNC(=O)c1nc[nH]c1C(=O)Nc1ccccn1 | . | 10.2 | -15.7 | 2.7 | 0.0 | -0.1 | 30.3 | 1.4
Cc1ccc(NC(=O)C2=CC(c3ccc(C)cc3)=NS(=O)(=O)N2C)cc1 | 4.5 | -2.0 | -3.5 | -5.6 | . | 1.2 | 10.7 | 5.9
Cn1c(=O)c(-c2cc(=O)[nH][nH]2)c(O)c2ccccc21 | 5.0 | 2.0 | -20.3 | 3.3 | -0.1 | . | -32.6 | 2.1
COc1ccc(CCNS(=O)(=O)c2cccc(F)c2)cc1OC | 2.0 | 0.1 | -2.4 | -0.9 | -0.6 | -1.3 | -9.0 | .
New compounds follow.
SMILES | UCH37 DUB inh | Beta2AR agonist | T cruzi repl | LANA-H2B inh | A1 inh | Beta cell apopt | Calb FLC | RanGTP-Impb inh
COc1ccc(C(=O)NC2CCCc3c2cnn3-c2ccc(C)c(C)c2)c(OC)c1OC (configuration not stated) | . | -15.7 | 20.7 | . | . | . | 10.9 | 4.7
CCN(CC)S(=O)(=O)c1ccc(N2CCOCC2)c(NC(=O)c2cccc3c(=O)c(C)c(-c4ccccc4)oc23)c1 | -27.8 | 19.7 | 42.7 | 4.7 | -0.5 | 30.1 | -3.3 | 0.3
COc1ccc(/C=N/NC(=O)Cn2cnc3ccccc3c2=O)cc1OC | . | 0.7 | -13.7 | 7.2 | 0.8 | -9.7 | 0.2 | -0.6
O=C(CCS(=O)(=O)c1ccc(F)cc1)Nc1ccc(N2CCN(Cc3ccccc3)CC2)cc1 | -1.7 | -5.6 | . | 6.0 | 0.5 | 2.6 | . | .
COc1cccc(NC(=O)c2ccc(-c3ccccc3[N+](=O)[O-])o2)c1 | 3.0 | 14.0 | 30.6 | 3.5 | -0.9 | 1.9 | 6.2 | ?
O=C1CC(C(=O)O)S/C(=N\NC(=O)c2ccccc2)N1 (configuration not stated) | 4.9 | -1.9 | -18.8 | -26.1 | -0.1 | 0.8 | 6.8 | 4.4
C=CCn1c(SCc2ccccc2)nc(O)cc1=O | -0.5 | -0.3 | -5.0 | 3.8 | -0.2 | . | 8.1 | -2.2
COc1ccc(C(NC=O)c2cc(OC)c(OC)cc2Br)cc1OC (configuration not stated) | 0.5 | 7.2 | -12.6 | 2.0 | 1.8 | 5.7 | 0.8 | 1.7
COc1cc(C(=O)OCC(=O)Nc2ccc(S(=O)(=O)NC3=NCCCCC3)cc2)cc(OC)c1OC | . | 5.7 | . | -7.6 | -0.3 | 3.3 | . | .
FC(F)(F)c1cc(-c2ccccc2)nc2nc(N3CCOCC3)sc12 | -25.8 | -34.5 | -1.9 | -1.3 | 1.4 | 4.5 | -10.0 | 2.3
Cc1ccccc1C(=O)N1CCC(C(=O)NC(C)c2ccc(-n3ccnc3)cc2)CC1 (configuration not stated) | 1.9 | -3.7 | -8.4 | 0.6 | -0.2 | . | -12.9 | -2.9
C=CCN(c1ccccc1)S(=O)(=O)c1cccc(C(=O)Nc2cccc(C)n2)c1 | 2.3 | 3.2 | 25.3 | -3.1 | 0.1 | -9.8 | 3.0 | 4.6
C/C(=N/Nc1ncc(C(F)(F)F)cc1Cl)c1ccncc1 | . | -20.3 | -5.3 | -0.4 | -0.2 | 1.0 | 1.9 | -5.5
COc1ccc(Br)cc1C(=O)NC(=S)Nc1ccc2[nH]c(=O)[nH]c2c1 | 5.7 | 2.3 | 9.4 | 2.5 | 1.4 | -1.3 | 42.2 | 0.4
CN(C)S(=O)(=O)c1ccc(C(=O)Nc2ccc3nc(N4CCOCC4)sc3c2)cc1 | -8.5 | -1.5 | . | 6.1 | 0.1 | -2.2 | . | .
COc1ccc(NC(=O)C2CCN(c3nc(C)nc4c3CCC4)CC2)cc1 | -0.7 | -16.3 | -7.8 | 1.3 | 0.9 | 8.0 | -7.2 | 6.7
Cc1cccc2nc(CSc3nncn3-c3ccccc3)cn12 | -0.5 | -3.2 | -5.2 | -1.3 | 0.1 | -2.6 | -6.6 | 0.4
COc1cc(NC(=O)Cn2cnc3c(SC)nc(N)nc32)cc(OC)c1OC | 1.7 | -2.4 | . | . | -0.3 | -0.2 | . | .
CCOC(=O)C1CCN(C(=O)COc2ccc(Br)cc2C)CC1 | 4.5 | 8.2 | -0.5 | -3.8 | -0.2 | -4.3 | 9.1 | -0.1
Cc1ccc(N2CC(C(=O)NC(C)CCc3ccccc3)CC2=O)cc1 (configuration not stated) | 3.5 | 4.9 | -0.2 | -3.3 | 0.9 | -0.7 | -0.7 | 4.4
CCC(C)[C@H](NC(=O)NCc1cccs1)C(=O)OC (some centres not stated) | -0.1 | -4.6 | 10.8 | -3.2 | -0.2 | -1.2 | -2.5 | -2.2
O=C(O)COc1ccc(F)cc1Br | 1.5 | 0.0 | -4.9 | 0.3 | 0.6 | 0.0 | -5.8 | 25.5*
O=C(NCC(c1ccco1)N1CCCC1)c1ccc(S(=O)(=O)Nc2ccccc2Cl)cc1 (configuration not stated) | 0.3 | 5.5 | . | 0.8 | 0.2 | -6.7 | . | .
CCC(=O)NNc1ncnc2c1cnn2C | 0.6 | -1.1 | 1.7 | -1.0 | -0.3 | -1.4 | -22.7 | -2.3
CC(=O)N/N=C/c1ccccc1OCCOc1cccc(C)c1 | . | -5.4 | -29.3 | -6.5 | -0.5 | -3.1 | 18.6 | 3.0
Additional results follow.
SMILES | UCH37 DUB inh | Beta2AR agonist | T cruzi repl | LANA-H2B inh | A1 inh | Beta cell apopt | Calb FLC | RanGTP-Impb inh
O=[N+]([O-])c1ccc(N=Nc2ccc(O)cc2O)cc1 | 25.4* | 10.1 | 45.4 | 6.8 | -9.5 | 66.6 | 10.2 | -8.6
N=C(N)c1ccc(N)cc1 | 0.8 | -0.5 | . | -6.8 | 0.4 | -2.4 | . | .
O=S(=O)(c1ccc(NC(=S)NN=C(Cc2ccccc2)Cc2ccccc2)cc1)N1CCOCC1 | 4.0 | -2.1 | -5.9 | 4.3 | 1.1 | . | ? | -14.9
Cc1ccsc1C(=O)NNC(=O)c1cccc(S(=O)(=O)N2CCCC2)c1 | 6.8 | 0.8 | . | -1.8 | 0.6 | -9.8 | . | .
Cc1csc(NC(=O)NCC2CCCC(CNC(=O)Nc3nc(C)cs3)C2)n1 (configuration not stated) | 0.5 | -20.2 | 33.4 | 0.6 | 2.0 | 0.0 | 3.6 | 5.2
O=C(CCN1C(=O)c2ccccc2C1=O)C1=NN[C@@H]2C(=O)N(c3ccc(F)cc3)C(=O)[C@H]12 | . | 0.8 | -12.6 | 1.0 | 0.1 | 0.4 | -8.3 | -0.8
NC(=O)Cn1cc(C(=O)c2cccs2)c2ccccc21 | 3.0 | -2.8 | -4.1 | -6.2 | -0.5 | -4.7 | -1.2 | 3.3
O=C(O)C1CCCCN1C(=O)c1ccc(S(=O)(=O)N2CCCCCC2)cc1 (configuration not stated) | 3.9 | -5.3 | . | 2.8 | 0.7 | -3.0 | . | .
COc1cc(/C(C)=N\NC(=O)CSc2nc3ccccc3n2C)ccc1O | . | -12.6 | 7.9 | 2.3 | 0.2 | -2.9 | 1.9 | 4.8
Cc1cc(C)cc(C(=O)NC2CC(C)(C)NC(C)(C)C2)c1 | 3.2 | -1.3 | 3.3 | 1.3 | 1.1 | . | 10.3 | 1.6
